D2 ag: Beta-Arrestin HTS for Positive Allosteric Modulators of the Human D2 Dopamine Receptor: Agonists; 360,000 compounds, 0.084% hits; DiscoveRx PathHunter D2 beta-arrestin, luminescence, 90 min; 100% = 57 uM dopamine signal; activation, % (test concentration not listed); in the data active = activation above about 40%; inconclusive = about 15% to 40%; inactive = below about 15%; further: compound concentration not given in the record; the text of the record calls up to 30% inactive
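DiscoveRx PathHunter D2 beta-arrestin cells (2,100/well) attached overnight, then compound-stimulated 90 min at 37 C in HBSS/10 mM HEPES/0.1% Tween-20 buffer; beta-galactosidase complementation read by luminescence after 1 h at ambient temperature. Dopamine 57 uM final (EC100) as control.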
Six1-Eya2 inh: qHTS Assay for Inhibitors of the Six1/Eya2 Interaction; AlphaScreen GST-Six1/His-Eya2 binding, biochemical; stronger effect = lower value; control for the full effect not named in the record; AID 651725, 2012; Homeobox protein SIX1 (Homo sapiens) + Protein phosphatase EYA2 (Homo sapiens), …; activity change, % (test concentration not listed); 360,000 compounds, 0.56% hits; in the data active = activity change below about -65%; inconclusive = about -30% to -65%; inactive = above about -30%; further: on the % scale 0 is the no-effect control and ±100 the full control effect
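AlphaScreen luminescence read after one hour at 37 °C in darkness. Pin-transferred compounds met GST-Six1 and His-Eya2 protein (5X stock 250 nM/500 nM) plus glutathione donor and Ni-chelate acceptor beads (5X, 50 ug/mL).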
CtBP-E1A blk: qHTS Assay for Inhibitors of the CtBP/E1A Interaction; 340,000 compounds, 0.49% hits; AlphaScreen GST-E1A/His-CtBP binding, 1536-well; stronger effect = lower value; control for the full effect not named in the record; activity change, % (test concentration not listed); CtBP / adenovirus E1A interaction (AlphaScreen); in the data active means activity change below about -65%; inconclusive means about -30% to -65%; inactive means above about -30%; further: on the % scale 0 is the no-effect control and ±100 the full control effect
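In 5 uL wells, 23 nL compound meets equimolar GST-E1A and His-CtBP (5X stock 125 nM each) for 2 h, 37 °C. Beads (5X, 50 ug/mL) then 1 h, 37 °C, dark.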
PINK1 expr mod: A Quantitative High throughput Screen to Identify Chemical Modulators of PINK1 Expression; PINK1 immunofluorescence, high-content cytometry, 24 h; AID 624263, 2012; Potency, µM (highest dose often 76.6 µM), for inactives: top-dose activation (PINK1 increase), most hits filed as activators; 410,000 compounds, 0.2% hits; active = well fitted activation curve with a large enough effect; inconclusive = small, poorly fitted or top-dose-only effect; inactive = flat fitted curve, though single readings scatter; cell line not stated here;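 further: potency means the concentration at half of the fitted maximal effect; % of control where 0% means no effect; nearly all actives have a fitted effect of over 65% in size; a mitochondrial uncoupler was the plate control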
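Fluorescence from anti-PINK1 antibody, together with nuclear and cell stains, was scanned on a laser-scanning cytometer. Before staining, stable-line cells were incubated 24 hours with compounds at 5 concentrations; primary antibody 12 h at 10 degrees C.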
Sfp PPTase inh: qHTS Assay for Inhibitors of Bacillus subtilis Sfp phosphopantetheinyl transferase (PPTase); 4'-phosphopantetheinyl transferase ffp (Bacillus subtilis), Q9F4F7; Biochemical Sfp PPTase activity, qHTS; Potency, µM, inactives show max response, negative = inhibition, hits mostly inhibitors; 310,000 compounds, 3.5% hits; AID 1490, 2009; active means well fitted inhibition curve with a large enough effect; inconclusive means small, poorly fitted or top-dose-only effect, or another doubt; inactive means no such curve, though single readings can be large or run the other way;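 further: the enzyme is Sfp with the accession as filed and its product quenches rhodamine fluorescence; potency means the concentration at half of the fitted maximal effect; 0% = enzyme reaction without inhibitor and -100% = no enzyme wells; top concentration of the series not given in the record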
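Fluorescence-quenching assay: 15 nM Sfp-PPTase preincubated 15 min at room temperature with compound, then 5 uM rhodamine-CoA and 12.5 uM BHQ-2-labelled YbbR peptide added. Fluorescence (ex 525/em 598 nm) read at start and after 30 min; difference gives rate.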
TRPV1 PAM: HTS Assay for Compounds that Act as Potentiators of the Vanilloid Receptor 1. Transient receptor potential cation channel subfamily V member 1 (Homo sapiens), Q8NER1. AID 540277, 2011. 320,000 compounds, 0.02% hits. TRPV1-expressing cells, Fluo-8 calcium influx, capsaicin EC20 potentiation; host cell line not named in the record; control for the full effect not named in the record. potentiation, % at 8.33 µM; active means potentiation above 80%; inconclusive means 30% to 80%; inactive means below 30%; further: 0% is about no effect
Target sequence (Q8NER1 whole entry, looked up): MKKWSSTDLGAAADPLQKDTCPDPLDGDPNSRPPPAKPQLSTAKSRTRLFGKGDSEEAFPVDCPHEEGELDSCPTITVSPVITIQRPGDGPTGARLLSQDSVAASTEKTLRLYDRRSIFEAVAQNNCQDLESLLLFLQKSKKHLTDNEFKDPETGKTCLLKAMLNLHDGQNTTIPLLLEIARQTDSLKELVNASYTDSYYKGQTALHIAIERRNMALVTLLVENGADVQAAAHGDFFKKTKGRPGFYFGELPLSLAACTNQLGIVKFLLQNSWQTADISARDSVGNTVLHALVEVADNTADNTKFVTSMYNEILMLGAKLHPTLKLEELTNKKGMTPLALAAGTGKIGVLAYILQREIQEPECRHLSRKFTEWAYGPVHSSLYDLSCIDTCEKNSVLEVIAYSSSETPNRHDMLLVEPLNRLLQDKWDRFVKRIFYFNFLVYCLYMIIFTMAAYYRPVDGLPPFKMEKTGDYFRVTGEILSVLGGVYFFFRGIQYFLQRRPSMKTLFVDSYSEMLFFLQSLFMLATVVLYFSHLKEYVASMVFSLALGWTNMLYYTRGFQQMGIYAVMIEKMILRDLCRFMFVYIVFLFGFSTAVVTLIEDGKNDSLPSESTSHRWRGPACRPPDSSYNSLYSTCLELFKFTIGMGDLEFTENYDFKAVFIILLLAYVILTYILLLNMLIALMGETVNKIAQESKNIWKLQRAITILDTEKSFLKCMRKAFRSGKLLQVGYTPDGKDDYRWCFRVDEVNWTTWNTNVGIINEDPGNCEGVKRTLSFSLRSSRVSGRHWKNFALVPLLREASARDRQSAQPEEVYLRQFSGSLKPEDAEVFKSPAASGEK
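TRPV1-expressing cells were cultured overnight at 35.5C and loaded with Fluo-8 calcium dye for 40 to 90 min at room temperature. After a 10 s baseline, compound was added and calcium influx was read kinetically for 3 min (ex 480/em 520 nm).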
D2 PAM: Beta-Arrestin HTS for Positive Allosteric Modulators of the Human D2 Dopamine Receptor: Potentiators | potentiation, % (concentration not given with the values) | D(2) dopamine receptor (Homo sapiens), P14416 | AID 624464, 2012 | 360,000 compounds, 0.23% hits | DiscoveRx D2 beta-arrestin cells, luminescence, 90 min; 100% = 57 uM dopamine signal; active = potentiation of 50% or more; inconclusive = 30% to 50%; inactive = 30% or less;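 further: tested on top of an EC20 dose of dopamine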
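PathHunter beta-arrestin assay in DiscoveRx D2 cells. Compounds were added with an EC20 of dopamine (50 nM final) for 90 min at 37 deg C. Luminescence was read 1 h after detection reagent, with 57 uM dopamine as the EC100 control.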
Starred values were filed as active, the others as inactive; ! = a repeat was not active.

Results for CC1=CC2=NC(=O)CC(C)(C(=O)N(CC(=O)NC3CCCC3)c3cc(C)cc(C)c3)N2C=C1 (stereo not drawn) ?
D2 ag: 0.8; Six1-Eya2 inh: 5; PINK1 expr mod: -1.7%; Sfp PPTase inh: 2%; TRPV1 PAM: 13; D2 PAM: -7

Results for COc1cc(OC)cc(-c2c(-c3cccs3)c3cc(-c4cnc(OC)nc4)ccc3n2C)c1 ?
D2 ag: -1.2; Six1-Eya2 inh: -6; CtBP-E1A blk: 0; PINK1 expr mod: 4.1%; TRPV1 PAM: 8; D2 PAM: -3

How did CCCCCCCCCCOC(=O)Cn1c(COc2cccc(OC)c2)[n+](C)c2ccccc21 do in these assays?
D2 ag: -7.2; Six1-Eya2 inh: -3; PINK1 expr mod: -1.2%; Sfp PPTase inh: 45µM*; TRPV1 PAM: -12; D2 PAM: -45

What do the screens show for `COc1ccc(NC(=O)c2ccc(F)cc2)cc1S(=O)(=O)Nc1cc(C)ccc1Br`?
D2 ag: 4.2; Six1-Eya2 inh: -4; CtBP-E1A blk: 0; PINK1 expr mod: inconclusive; Sfp PPTase inh: 4%; TRPV1 PAM: 7; D2 PAM: -17

What do the screens show for `COCCn1cc(C(=O)NCc2ccco2)c2c3ccccc3n(C)c2c1=O`?
D2 ag: -5.4; Six1-Eya2 inh: -12; CtBP-E1A blk: -2; PINK1 expr mod: 3.7%; Sfp PPTase inh: 12%; TRPV1 PAM: -3; D2 PAM: 10

What do the screens show for `COc1cc(/C=N\N=C2/SC(CC(=O)O)C(=O)N2c2ccc(O)cc2)ccc1O` (stereo not drawn)?
D2 ag: -2.5; Six1-Eya2 inh: 5; CtBP-E1A blk: 6; Sfp PPTase inh: 13%; TRPV1 PAM: 5; D2 PAM: -14

How did COc1cccc(C2C(=O)c3ccccc3C2=O)c1 do in these assays?
D2 ag: -1.6; Six1-Eya2 inh: 1; CtBP-E1A blk: 6; PINK1 expr mod: 0.1%; Sfp PPTase inh: 14%; TRPV1 PAM: -7; D2 PAM: -5

How did CCN(C(=O)COC(=O)/C(C#N)=C/c1ccc(N(C)C)cc1)C1CCS(=O)(=O)C1 (stereo not drawn) do in these assays?
D2 ag: -3.2; Six1-Eya2 inh: 1; CtBP-E1A blk: 5; PINK1 expr mod: -0.9%; D2 PAM: -11

What do the screens show for `Cc1nn(-c2ccccc2)c(C)c1/C=N/n1c(-c2ccncc2)n[nH]c1=S`?
D2 ag: -6.4; Six1-Eya2 inh: 0; CtBP-E1A blk: -7; PINK1 expr mod: -0.6%; Sfp PPTase inh: -18%; TRPV1 PAM: 14; D2 PAM: -6

What do the screens show for `CC(=O)N1CC(C)Sc2ccc(S(=O)(=O)NC3CCCCC3)cc21` (stereo not drawn)?
D2 ag: 2.0; Six1-Eya2 inh: 5; CtBP-E1A blk: 2; PINK1 expr mod: -0.7%; Sfp PPTase inh: 7%; TRPV1 PAM: -11; D2 PAM: -2

What do the screens show for `COCCCn1cc(CN2CC(N3CCN(Cc4ccccc4F)CC3)CS2(=O)=O)nn1` (stereo not drawn)?
Six1-Eya2 inh: -1; CtBP-E1A blk: 8; PINK1 expr mod: -0.6%

Results for O=C(Nc1ccccc1N1CCOCC1)c1ccc(N2CCCC2=O)cc1 ?
D2 ag: -3.5; Six1-Eya2 inh: -7; CtBP-E1A blk: 3; PINK1 expr mod: 2.3%; TRPV1 PAM: -9; D2 PAM: 0

What do the screens show for `Cc1nnc(NC(=O)C2=COCCO2)s1`?
D2 ag: -3.9; Six1-Eya2 inh: 8; CtBP-E1A blk: 0; PINK1 expr mod: -1.3%; TRPV1 PAM: -8; D2 PAM: 1

Results for NC(=O)COC(=O)c1ccccc1Nc1ccc(SC(F)F)cc1 ?
D2 ag: -3.7; Six1-Eya2 inh: 1; CtBP-E1A blk: -1; PINK1 expr mod: 0.9%; Sfp PPTase inh: -8%; TRPV1 PAM: -10; D2 PAM: -7

What do the screens show for `CSc1ccc(CNC(=O)Cc2ccc(NC(=O)C3=C(C)OCCS3)cc2)cc1`?
D2 ag: -4.0; Six1-Eya2 inh: -3; PINK1 expr mod: 14%; Sfp PPTase inh: 17%; TRPV1 PAM: -14; D2 PAM: -3

How did O=C(CSc1cccs1)Nc1ccc(Cl)cc1 do in these assays?
D2 ag: -8.5; Six1-Eya2 inh: 0; CtBP-E1A blk: 19; PINK1 expr mod: -0.4%; Sfp PPTase inh: 2%; TRPV1 PAM: -13; D2 PAM: -14

What do the screens show for `Cc1cc[n+](-c2nc3ccccc3nc2[N-]S(=O)(=O)c2ccccc2)cc1`?
D2 ag: -2.1; Six1-Eya2 inh: 19; CtBP-E1A blk: 1; PINK1 expr mod: -0.9%; Sfp PPTase inh: 12%; TRPV1 PAM: 22; D2 PAM: -9

What do the screens show for `CCc1ccc(Nc2ncc3c(n2)CC(C)(C)CC3=O)cc1`?
D2 ag: -7.0; Six1-Eya2 inh: 12; CtBP-E1A blk: -16; PINK1 expr mod: -0.2%; Sfp PPTase inh: 8%; TRPV1 PAM: -7; D2 PAM: -9

How did CCN(CC)C(=O)[C@H]1CC(CC(=O)NC/C=C(\C)CCC=C(C)C)C(=O)N2CCc3c([nH]c4ccccc34)[C@]12C (stereo partly drawn) do in these assays?
D2 ag: -0.5; Six1-Eya2 inh: -14; CtBP-E1A blk: -12; PINK1 expr mod: -1.0%

How did O=C(c1cccs1)N1CCC(c2ccccc2)C1 (stereo not drawn) do in these assays?
D2 ag: -1.7; Six1-Eya2 inh: 0; CtBP-E1A blk: -1; PINK1 expr mod: -0.3%; Sfp PPTase inh: 11%; TRPV1 PAM: 11; D2 PAM: -18

Results for O=C(O)C1CCCN1S(=O)(=O)c1ccc2[nH]c(=O)c(=O)[nH]c2c1 (stereo not drawn) ?
D2 ag: -4.6; Six1-Eya2 inh: 5; CtBP-E1A blk: -2; PINK1 expr mod: -0.8%; Sfp PPTase inh: 16%; TRPV1 PAM: -14; D2 PAM: -8

How did COc1ccc(OC)c(NC(=O)Nc2nc(CN)cs2)c1 do in these assays?
D2 ag: -8.4; Six1-Eya2 inh: -24; CtBP-E1A blk: inconclusive; PINK1 expr mod: -0.1%; D2 PAM: -16

What do the screens show for `CC1CCCC(C)N1C(=O)c1cc(F)c(F)cc1Cl` (stereo not drawn)?
D2 ag: -3.2; Six1-Eya2 inh: -1; CtBP-E1A blk: 7; PINK1 expr mod: 0.2%; Sfp PPTase inh: 15%; TRPV1 PAM: -17; D2 PAM: -17

What do the screens show for `Cc1ccc(S(=O)(=O)NCC(=O)NCC(=O)OCC(=O)NC(=O)NC(C)(C)C)cc1C`?
D2 ag: 0.1; Six1-Eya2 inh: -4; CtBP-E1A blk: -7; PINK1 expr mod: -1.9%; Sfp PPTase inh: 13%; TRPV1 PAM: 4; D2 PAM: -29

What do the screens show for `Cc1ccc(NS(=O)(=O)c2ccc3c(c2)c(=O)n(C)c(=O)n3C)cc1F`?
D2 ag: -2.6; Six1-Eya2 inh: -6; CtBP-E1A blk: -8; PINK1 expr mod: -1.4%; Sfp PPTase inh: -2%; TRPV1 PAM: 6; D2 PAM: 13

How did Cc1cc(C)n(CCC(=O)Nc2ccc3c(c2)OCCO3)n1 do in these assays?
D2 ag: -4.4; Six1-Eya2 inh: 8; PINK1 expr mod: 0.7%; Sfp PPTase inh: 8%; TRPV1 PAM: -8; D2 PAM: -12

What do the screens show for `C/C(N)=C(/C#N)C(=O)CSc1nnc(-c2ccccc2)n1C`?
D2 ag: -1.9; Six1-Eya2 inh: 11; CtBP-E1A blk: -1; PINK1 expr mod: -1.2%; Sfp PPTase inh: 16%; TRPV1 PAM: 3; D2 PAM: 1

What do the screens show for `COC(=O)c1ccc(NC(=O)CNC(=O)C2CCCCC2)c(C)c1`?
D2 ag: -1.7; Six1-Eya2 inh: -6; CtBP-E1A blk: -12; PINK1 expr mod: 1.0%; Sfp PPTase inh: 23%; TRPV1 PAM: 13; D2 PAM: -5

What do the screens show for `COc1ccc(C(=O)Nc2ccc(NC(=O)c3cccc(OC)c3)cn2)cc1`?
D2 ag: 3.9; Six1-Eya2 inh: -3; CtBP-E1A blk: 3; PINK1 expr mod: 3.2%; Sfp PPTase inh: 6%; TRPV1 PAM: 3; D2 PAM: 1

Results for CCCCOc1ccc(CC(=O)NCC(=O)O)cc1 ?
D2 ag: -6.1; Six1-Eya2 inh: 5; CtBP-E1A blk: -1; PINK1 expr mod: 0.5%; Sfp PPTase inh: 1%; TRPV1 PAM: -28; D2 PAM: -18

How did COc1ccc2c(c1)CCC(=O)[C@H](O)C[C@H](c1ccccc1)OC2=O do in these assays?
Six1-Eya2 inh: -2; CtBP-E1A blk: 1; PINK1 expr mod: 0.2%

What do the screens show for `CCC(CC)C(=O)OCC(=O)Nc1cc(OC)c([N+](=O)[O-])cc1C`?
D2 ag: -2.1; Six1-Eya2 inh: -6; CtBP-E1A blk: -2; PINK1 expr mod: 0.5%; Sfp PPTase inh: 10%; TRPV1 PAM: 1; D2 PAM: -8

What do the screens show for `CCOC(=O)c1cnc(-c2ccccc2O)nc1Cl`?
D2 ag: -4.1; Six1-Eya2 inh: 8; CtBP-E1A blk: 1; PINK1 expr mod: 1.0%; Sfp PPTase inh: -6%; TRPV1 PAM: 1; D2 PAM: -4

Results for CN(C)c1ccc(/C=C/c2ccc3c4ccccc4ccc3[n+]2-c2ccccc2)cc1 ?
D2 ag: 1.7; Six1-Eya2 inh: inconclusive; CtBP-E1A blk: -17; PINK1 expr mod: 8.9µM*!; Sfp PPTase inh: 14µM*; TRPV1 PAM: -26; D2 PAM: -3

Fetched one by one from the list above (two):
What do the screens show for `CCOC(=O)c1cnc(-c2ccccc2O)nc1Cl`?
D2 ag: -4.1; Six1-Eya2 inh: 8; CtBP-E1A blk: 1; PINK1 expr mod: 1.0%; Sfp PPTase inh: -6%; TRPV1 PAM: 1; D2 PAM: -4

What do the screens show for `COC(=O)c1ccc(NC(=O)CNC(=O)C2CCCCC2)c(C)c1`?
D2 ag: -1.7; Six1-Eya2 inh: -6; CtBP-E1A blk: -12; PINK1 expr mod: 1.0%; Sfp PPTase inh: 23%; TRPV1 PAM: 13; D2 PAM: -5
